c-Myc SMM = binders of human c-Myc; calls only; AID 624141; actives 1.5% (n = 17,000); small molecule microarray, His-c-Myc binding, anti-His fluorescence;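 active means spot fluorescence over background with P-value below 7% in all four replicate spots, showing protein binding; compounds were printed on slides so no solution concentration is given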;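 further: score is binary with 100 for all four spots passing and 0 otherwise; about 2 pmol printed per array spot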
Target sequence (P01106 whole entry, looked up): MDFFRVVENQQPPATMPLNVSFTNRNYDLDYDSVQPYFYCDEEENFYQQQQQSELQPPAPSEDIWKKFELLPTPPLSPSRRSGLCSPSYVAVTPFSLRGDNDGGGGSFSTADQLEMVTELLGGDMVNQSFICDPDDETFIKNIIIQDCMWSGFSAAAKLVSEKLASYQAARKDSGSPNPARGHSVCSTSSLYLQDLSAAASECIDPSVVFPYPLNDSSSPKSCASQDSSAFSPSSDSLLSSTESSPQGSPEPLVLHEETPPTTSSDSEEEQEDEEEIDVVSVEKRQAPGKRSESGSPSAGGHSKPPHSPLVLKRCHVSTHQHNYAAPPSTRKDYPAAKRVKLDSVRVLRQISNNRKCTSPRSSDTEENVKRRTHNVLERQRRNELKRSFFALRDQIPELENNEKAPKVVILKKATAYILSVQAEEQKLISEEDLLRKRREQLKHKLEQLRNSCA
ID4 binder = binders of human ID4 protein; AID 624137; small molecule microarray, Flag-ID4 binding, fluorescence F/B; P47928; calls only; actives 1.2% (n = 31,000);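 active means spot signal over background at p below 0.07 in all four prints; compounds were printed on slides so no solution concentration is given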;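 further: a binder raises fluorescence above local background on the spot; about 2 pmol printed per array spot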
Target sequence (P47928 whole entry, looked up): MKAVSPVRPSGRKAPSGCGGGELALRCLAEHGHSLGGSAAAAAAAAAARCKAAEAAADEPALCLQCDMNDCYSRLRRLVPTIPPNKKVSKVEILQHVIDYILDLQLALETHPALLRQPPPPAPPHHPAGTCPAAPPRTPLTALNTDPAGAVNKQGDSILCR
p53 mut binder = binds human mutant p53 on microarray; small molecule microarray binding, anti-GST fluorescence; calls only; actives 0.4% (n = 17,000); AID 624136;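 active means compounds whose four printed spots each glow above background more than chance allows, each with a p-value under 7%; compounds were printed on slides so no solution concentration is given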;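 further: about 2 pmol printed per array spot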
STAT3 SMM = STAT3 (human) binding; calls only; AID 624138; P40763; actives 0.2% (n = 17,000); Small molecule microarray, His-STAT3 binding, anti-His fluorescence;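 active means compounds whose four printed spots each show fluorescence over background unusually high for their array block, chance value under 7%; compounds were printed on slides so no solution concentration is given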;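 further: about 2 pmol printed per array spot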
Calls only; i = inactive; nt = not tested or not shown.

entry | structure | ID4 binder | STAT3 SMM
1 | COc1ccc(NC(=O)Nc2ccc3c(c2)C(=O)N([C@@H](C)CO)C[C@@H](C)[C@H](CN(C)C)OCCCC[C@@H](C)O3)cc1 | nt | i
2 | CC(Oc1ccc(Br)cc1)C(=O)Nc1ncn[nH]1 (configuration not stated) | i | i
3 | O=C(C1=C[C@H](c2csc3ccccc23)C[C@H](OCCCCO)O1)N1CCN(Cc2ccccc2)CC1 | i | i
4 | C[C@@H]1CCCCO[C@H](CN(C)C(=O)CCCN(C)C)[C@@H](C)CN([C@H](C)CO)C(=O)c2cc(NS(=O)(=O)c3cccs3)ccc2O1 | i | i
5 | C=CCOC(=O)C(=O)/C=C/C(C)(C)C | i | i
6 | C[C@@H]1CCCCO[C@@H](CN(C)S(=O)(=O)c2ccccc2)[C@@H](C)CN([C@H](C)CO)C(=O)c2cc(N(C)C)ccc2O1 | i | i
7 | O=C1CSC(c2ccccc2)N1c1cccc(Cl)c1 (configuration not stated) | i | i
8 | COc1ccc(-c2ccc(C#N)c(SCC(=O)Nc3cc(OC)c(OC)c(OC)c3)n2)cc1 | i | i
9 | C[C@H]1CCCCO[C@H](CN(C)Cc2ccc(C(=O)O)cc2)[C@@H](C)CN([C@@H](C)CO)C(=O)c2cc(NC(=O)Nc3ccc(F)cc3)ccc2O1 | i | i
10 | C=C/C=C/[C@@H]1C(=C)CN2[C@H]1[C@H](Cc1ccccc1)OC(=O)[C@@H]2Cc1ccccc1 | i | i
11 | C[C@H](CO)N1C[C@H](C)[C@@H](CN(C)C(=O)NC2CCCCC2)Oc2ccc(NC(=O)NC3CCCCC3)cc2C1=O | i | i
12 | C[C@@H]1CN([C@@H](C)CO)C(=O)c2cc(NC(=O)CCCN(C)C)ccc2O[C@@H](C)CCCCO[C@@H]1CN(C)S(=O)(=O)c1cccs1 | i | i
13 | C[C@@H]1CN([C@@H](C)CO)C(=O)Cc2cc(N(C)C)ccc2O[C@@H]1CN(C)Cc1ccccc1 | i | i
14 | C[C@H]1CN([C@@H](C)CO)C(=O)c2cc(NC(=O)Nc3ccc4c(c3)OCO4)ccc2O[C@H]1CN(C)S(=O)(=O)c1cn(C)cn1 | i | i
15 | COc1ccc(CN(C)C[C@@H]2Oc3c(NC(=O)Nc4cccc5ccccc45)cccc3C(=O)N([C@@H](C)CO)C[C@@H]2C)cc1 | i | i

entry | p53 mut binder | c-Myc SMM
1 | i | i
2 | i | i
3 | i | i
4 | i | i
5 | i | i
6 | i | i
7 | i | i
8 | i | i
9 | i | i
10 | i | i
11 | i | i
12 | i | i
13 | i | i
14 | i | i
15 | i | i

The list goes on; it opens with the four that closed the last part.
entry | structure | ID4 binder | STAT3 SMM
12 | C[C@@H]1CN([C@@H](C)CO)C(=O)c2cc(NC(=O)CCCN(C)C)ccc2O[C@@H](C)CCCCO[C@@H]1CN(C)S(=O)(=O)c1cccs1 | i | i
13 | C[C@@H]1CN([C@@H](C)CO)C(=O)Cc2cc(N(C)C)ccc2O[C@@H]1CN(C)Cc1ccccc1 | i | i
14 | C[C@H]1CN([C@@H](C)CO)C(=O)c2cc(NC(=O)Nc3ccc4c(c3)OCO4)ccc2O[C@H]1CN(C)S(=O)(=O)c1cn(C)cn1 | i | i
15 | COc1ccc(CN(C)C[C@@H]2Oc3c(NC(=O)Nc4cccc5ccccc45)cccc3C(=O)N([C@@H](C)CO)C[C@@H]2C)cc1 | i | i
16 | C[C@H](CO)N1C[C@H](C)[C@H](CN(C)S(=O)(=O)c2ccc(C#N)cc2)Oc2ncc(C#Cc3ccccc3)cc2C1=O | i | i
17 | C[C@H]1CN([C@@H](C)CO)C(=O)c2cccc(NS(=O)(=O)c3cn(C)cn3)c2O[C@H]1CN(C)Cc1ccc2c(c1)OCO2 | i | i
18 | O=c1cc(-c2ccccc2)oc2ccc(O)cc12 | i | i
19 | Cc1cc(=O)[nH]c(SCCOc2ccc(C(=O)c3ccccc3)cc2)n1 | i | i
20 | O[C@@H]1[C@@H](O)[C@H](OC/C=C/c2ccccc2)O[C@H](CO[C@@H]2OC[C@H](O)[C@H](O)[C@H]2O)[C@H]1O | i | i
21 | C[C@H](CO)N1C[C@H](C)[C@@H](CN(C)Cc2ccc(C(F)(F)F)cc2)Oc2c(NS(=O)(=O)c3cn(C)cn3)cccc2C1=O | i | i
22 | COc1ccc(C(=O)Nc2ccc(Cc3ccc(NC(=O)c4ccc(OC)cc4)c(O)c3)cc2O)cc1 | i | i
23 | Cc1noc(C)c1NC(=O)Nc1cccc2c1O[C@H](CN(C)C(=O)Nc1c(C)noc1C)[C@H](C)CN([C@@H](C)CO)C2=O | i | i
24 | C=CCNC(=O)[C@H]1[C@@H]2C(=O)O[C@@H](c3ccccc3)[C@@H](c3ccccc3)N2[C@@H](c2ccc(OCCO)cc2)[C@]12C(=O)Nc1ccc(C#Cc3ccc(OC)cc3)cc12 | i | i
25 | C[C@]12CCC(=O)N1CCc1c2[nH]c2ccccc12 | i | i
26 | C[C@H](CO)N1C[C@H](C)[C@@H](CN(C)C(=O)Nc2ccccc2)Oc2ccc(N(C)C)cc2CC1=O | i | i
27 | C[C@H](CO)N1C[C@H](C)[C@@H](CN(C)CC2CC2)OCCCC[C@H](C)Oc2ccc(NC(=O)Nc3cccc4ccccc34)cc2C1=O | nt | i
28 | C[C@H](CO)N1C[C@H](C)[C@@H](CN(C)S(=O)(=O)c2ccc(Cl)cc2)Oc2ccc(NC(=O)NC3CCCCC3)cc2CC1=O | i | i
29 | C[C@@H]1CN([C@H](C)CO)C(=O)CCCn2nncc2CO[C@H]1CN(C)Cc1ccncc1 | i | i
30 | C[C@@H]1CCCCO[C@@H](CN(C)Cc2ccc(C(=O)O)cc2)[C@H](C)CN([C@H](C)CO)C(=O)c2cc(NC(=O)c3ccncc3)ccc2O1 | i | i

entry | p53 mut binder | c-Myc SMM
12 | i | i
13 | i | i
14 | i | i
15 | i | i
16 | i | i
17 | i | i
18 | i | i
19 | i | i
20 | i | i
21 | i | i
22 | i | i
23 | i | i
24 | i | i
25 | i | i
26 | i | i
27 | i | i
28 | i | i
29 | i | i
30 | i | i

(further entries)
entry | structure | ID4 binder | STAT3 SMM
31 | C[C@H]1CN([C@@H](C)CO)C(=O)Cc2cc(NC(=O)Nc3ccc(F)cc3)ccc2O[C@@H]1CN(C)Cc1ccc(C(=O)O)cc1 | i | i
32 | CC1OC(Oc2cc(O)c3c(=O)c(OC4OCC(O)C(O)C4O)c(-c4ccc(O)cc4)oc3c2)C(O)C(O)C1O (configuration not stated) | i | i
33 | CCOC(=O)CCCSc1nc2c(c(C(F)(F)F)c1C#N)CC(C)CC2 (configuration not stated) | i | i
34 | C[C@@H]1CN([C@H](C)CO)C(=O)c2cc(NS(=O)(=O)c3ccccc3)ccc2O[C@@H](C)CCCCO[C@H]1CN(C)C(=O)C1CCCCC1 | i | i
35 | CC(C)NC(=O)N(C)C[C@@H]1Oc2ccc(NC(=O)C3CCCCC3)cc2C(=O)N([C@@H](C)CO)C[C@@H]1C | nt | i
36 | COCCOC(=O)N1C(=O)[C@@]2(c3cc(C#CC4(O)CCCCCC4)ccc31)[C@H](C(N)=O)[C@H]1C(=O)O[C@H](c3ccccc3)[C@H](c3ccccc3)N1[C@@H]2c1ccc(OCCO)cc1 | i | i
37 | O=C(C1=C[C@H](c2ccc3c(c2)Cc2ccccc2-3)C[C@H](OCCCCO)O1)N1CCCCC1 | i | i
38 | O=C(O)Cc1cc2ccccc2nc1C(=O)O | i | i
39 | CC1(CN2CCC(n3c(=O)[nH]c4ccccc43)CC2)OCc2ccccc2-n2cccc21 (configuration not stated) | i | i
40 | Cc1nc2ccccc2n1CC(O)COCC1CC=CCC1 (configuration not stated) | i | i
41 | C[C@@H]1CCCCO[C@@H](CN(C)Cc2ccc3c(c2)OCO3)[C@@H](C)CN([C@H](C)CO)C(=O)c2cc(NS(=O)(=O)c3ccccc3)ccc2O1 | i | i
42 | CC(C)NC(=O)Nc1ccc2c(c1)C(=O)N([C@@H](C)CO)C[C@@H](C)[C@@H](CN(C)C(=O)CCCN(C)C)OCCCC[C@H](C)O2 | i | i
43 | COc1ccccc1CC(=O)Nc1cc([N+](=O)[O-])ccc1OC | i | i
44 | C[C@@H]1CN([C@@H](C)CO)C(=O)Cc2cc(NC(=O)CCN3CCOCC3)ccc2O[C@@H]1CN(C)Cc1ccncc1 | i | i
45 | C[C@@H]1CN([C@@H](C)CO)C(=O)Cc2cc(NC(=O)C3CC3)ccc2O[C@H]1CN(C)Cc1ccc(C(=O)Nc2ccccc2N)cc1 | nt | i

entry | p53 mut binder | c-Myc SMM
31 | i | i
32 | i | i
33 | i | i
34 | i | i
35 | i | i
36 | i | i
37 | i | i
38 | i | i
39 | i | i
40 | i | i
41 | i | i
42 | i | i
43 | i | i
44 | i | i
45 | i | i

(further entries)
entry | structure | ID4 binder | STAT3 SMM
46 | Cc1nn(S(=O)(=O)c2ccccc2[N+](=O)[O-])c(C)c1Sc1ccccc1 | i | i
47 | Cc1cc2c(cc1S(N)(=O)=O)S(=O)(=O)CCC2 | i | i
48 | CC(Oc1cccc(Cl)c1)C(=O)Nc1ccccc1C(=O)O (configuration not stated) | i | i
49 | CC(C)NC(=O)N(C)C[C@H]1Oc2ccc(NC(=O)C3CC3)cc2C(=O)N([C@@H](C)CO)C[C@@H]1C | i | i
50 | C[C@@H]1CN([C@H](C)CO)C(=O)c2cccc(NC(=O)Nc3ccccc3)c2O[C@@H]1CN(C)Cc1ccc(C(F)(F)F)cc1 | nt | i
51 | C[C@@H]1CN([C@@H](C)CO)C(=O)c2cc(N(C)C)ccc2O[C@@H]1CN(C)C(=O)Nc1ccc(F)cc1 | i | i
52 | C[C@@H]1CN([C@@H](C)CO)C(=O)c2cc(NC(=O)Nc3ccc4c(c3)OCO4)ccc2O[C@@H]1CN(C)Cc1ccc(C(=O)O)cc1 | i | i
53 | Cc1noc(C)c1NC(=O)N(C)C[C@@H]1Oc2ccc(NC(=O)NC3CCCCC3)cc2C(=O)N([C@H](C)CO)C[C@@H]1C | i | i
54 | C[C@@H]1CN([C@@H](C)CO)C(=O)c2cc(NC(=O)c3ccncc3)ccc2O[C@@H]1CN(C)C(=O)NC1CCCCC1 | i | i
55 | C=CCN1C(=O)[C@@]2(O[C@@H](CCO)[C@H]([Si](C)(C)c3ccc(OC)cc3)[C@H]2C)c2cc(NC(C)=O)ccc21 | i | i
56 | C[C@H]1CN([C@@H](C)CO)C(=O)c2cc(NS(=O)(=O)c3cccs3)ccc2O[C@H]1CN(C)Cc1ccc(-c2ccccc2)cc1 | i | i
57 | COc1ccc(CN(C)C[C@@H]2Oc3ccc(NC(=O)Nc4ccc(C(F)(F)F)cc4)cc3C(=O)N([C@H](C)CO)C[C@@H]2C)cc1 | i | i
58 | C[C@@H]1CN([C@@H](C)CO)C(=O)c2cc(NS(=O)(=O)c3cn(C)cn3)ccc2O[C@@H]1CN(C)S(=O)(=O)c1cn(C)cn1 | i | i
59 | C[C@@H]1CCCCO[C@@H](CN(C)Cc2ccc(C(=O)O)cc2)[C@@H](C)CN([C@@H](C)CO)C(=O)c2cc(NS(C)(=O)=O)ccc2O1 | i | i
60 | C[C@@H]1CN([C@@H](C)CO)C(=O)c2cccc(NC(=O)c3nc4ccccc4s3)c2O[C@H]1CN(C)C(=O)Nc1ccc(C(F)(F)F)cc1 | i | i

entry | p53 mut binder | c-Myc SMM
46 | i | i
47 | i | i
48 | i | i
49 | i | i
50 | i | i
51 | i | i
52 | i | i
53 | i | i
54 | i | i
55 | i | i
56 | i | i
57 | i | i
58 | i | i
59 | i | i
60 | i | i

(list continues)
entry | structure | ID4 binder | STAT3 SMM
61 | CC(C)NC(=O)Nc1cccc2c1O[C@H](CN(C)Cc1ccc(Cl)c(Cl)c1)[C@H](C)CN([C@@H](C)CO)C2=O | i | i
62 | CC(C)NC(=O)Nc1ccc2c(c1)C(=O)N([C@@H](C)CO)C[C@H](C)[C@@H](CN(C)S(=O)(=O)c1cccs1)OCCCC[C@H](C)O2 | i | i
63 | COc1ccc(NC(=O)CSc2[nH]c(=O)cc(C)c2C#N)cc1OC | i | i
64 | Cc1noc(C)c1NC(=O)Nc1ccc2c(c1)CC(=O)N([C@H](C)CO)C[C@H](C)[C@H](CN(C)Cc1ccncc1)O2 | i | i
65 | C[C@@H]1CN([C@@H](C)CO)C(=O)c2cc(N(C)C)ccc2O[C@@H](C)CCCCO[C@H]1CN(C)S(=O)(=O)c1ccccc1 | i | i
66 | Cc1occc(=O)c1CC=O | i | i
67 | CC(C)NC(=O)N(C)C[C@H]1Oc2ccc(NC(=O)CCC(F)(F)F)cc2C(=O)N([C@H](C)CO)C[C@@H]1C | i | i
68 | C[C@H]1CCCCO[C@H](CN(C)C)[C@@H](C)CN([C@@H](C)CO)C(=O)c2cc(NC(=O)CCC(F)(F)F)ccc2O1 | i | i
69 | C[C@@H]1CN([C@H](C)CO)C(=O)c2cc(NC(=O)NC3CCCCC3)ccc2O[C@H]1CN(C)S(=O)(=O)c1ccc(Cl)cc1 | i | i
70 | CNC[C@@H]1Oc2ccc(NC(=O)CCN3CCOCC3)cc2C(=O)N([C@H](C)CO)C[C@H]1C | i | i
71 | C[C@]12CCC3C4(C=CC5(C=C4C(=O)c4ccc(F)c(F)c4)C[C@@H](O)CC[C@]35C)C1CC[C@@]2(O)CN1CCC(C(N)=O)CC1 (some centres not stated) | i | i

entry | p53 mut binder | c-Myc SMM
61 | i | i
62 | i | i
63 | i | i
64 | i | i
65 | i | i
66 | i | i
67 | i | i
68 | i | i
69 | i | i
70 | i | i
71 | i | i

Bioassay records: PubChem, Broad Institute
